# Bioassay records from PubChem BioAssay.
# VACV Venus inh: qHTS for Stage-Specific Inhibitors of Vaccinia Orthopoxvirus: Venus Reporter Primary qHTS | Potency, µM (doses to about 36.5 µM), for inactives: at the highest dose activity change, negative = inhibition, usual class: inhibitors | 330,000 tested, 0.46% active | AID 720580, 2013 | Vaccinia virus Venus reporter expression, fluorescence; active means well fitted inhibition curve with a large enough effect; inconclusive means small, poorly fitted or top-dose-only effect; inactive means no such curve, though single readings can be large or run the other way; tested in A549 cells; note: nearly all actives have a fitted effect of over 30% in size; inactives centre near -10
# Vaccinia mCherry: qHTS for Stage-Specific Inhibitors of Vaccinia Orthopoxvirus: mCherry Reporter Primary qHTS | Vaccinia virus mCherry reporter infection, fluorescence; about a quarter of the inactives have no number | Potency, µM (series often up to 36.5 µM), for the others: at the highest dose activity change, negative = inhibition, actives largely listed as inhibitors | 310,000 tested, 0.63% active; active = well fitted inhibition curve with a large enough effect; inconclusive = small, poorly fitted or top-dose-only effect; inactive = no such curve, though single readings can be large or run the other way; tested in A549 cells; note: nearly all actives have a fitted effect of over 35% in size; inactives centre near -10
# The depositor's hits bear a star; i = inactive; ? = inconclusive; / = no result given; [ ] = another dose, or the depositor's remark. % is set by controls: 0 for no effect and ±100 for the full control effect; potency is the fitted concentration of half-maximal effect.
1) Cc1cc(C)cc(-n2ccnc2SCC(=O)Nc2nc3ccc(C)cc3s2)c1
2) O=C(CSc1ccccn1)N/N=C/C=C/c1ccccc1
3) c1cnc2c(-c3ccc4nccn4c3)cccc2c1
4) COc1ccc(/C=N\NC(=O)c2ccccc2[N+](=O)[O-])cc1COc1c(F)c(F)c(F)c(F)c1F
5) CCCCC1CCCOC(C(=O)NCCNCCO)(C(F)(F)F)C1 (configuration not stated)
6) CCC1CCCCN1CCCNC(=O)Cn1cnc2sc(C)c(S(=O)(=O)N3CCC(C)CC3)c2c1=O (configuration not stated)

compound no.	1	2	3	4	5	6
VACV Venus inh	-22.2%	-2.5%	2.6%	-24.9%	-12.9%	1.4%
Vaccinia mCherry	i	i	-16.5%	-29.6%	i	-8.4%

7) CCOc1ccc(C(=O)NC(=S)Nc2ccccc2N2CCC(C)CC2)cc1[N+](=O)[O-]
8) O=C(CSCc1ccc(C(=O)O)cc1)Nc1ccccc1
9) CCOC(=O)/C(Sc1nc(-c2ccccc2)cc(-c2ccccc2)c1C#N)=C(\C)O
10) CC(=O)c1ccc(OCC(O)CN2C(C)(C)CC(O)CC2(C)C)cc1 (configuration not stated)
11) O=C(C[C@@H]1C/C=C/CC[C@H](Cc2ccc(F)cc2)C(=O)OCCNC1=O)N[C@H](CO)Cc1ccccc1
12) CC(C)(C)c1ccc(S(=O)(=O)NC(=O)C2(C)CCN2C(=O)Cc2cccs2)cc1 (configuration not stated)

compound no.	7	8	9	10	11	12
VACV Venus inh	-8.9%	-3.9%	-6.6%	4.1%	-28.6%	3.8%
Vaccinia mCherry	/	i	-24.0%	i	?	22.4%

# Two entries drawn at random from those above, as already listed:
7) CCOc1ccc(C(=O)NC(=S)Nc2ccccc2N2CCC(C)CC2)cc1[N+](=O)[O-]
11) O=C(C[C@@H]1C/C=C/CC[C@H](Cc2ccc(F)cc2)C(=O)OCCNC1=O)N[C@H](CO)Cc1ccccc1

compound no.	7	11
VACV Venus inh	-8.9%	-28.6%
Vaccinia mCherry	/	?

# (list continues)
13) Cc1noc2ncnc(NCCc3ccccc3)c12
14) COC(=O)c1cc(NS(=O)(=O)c2ccc(N3CCOCC3)c([N+](=O)[O-])c2)cc(C(=O)OC)c1
15) c1ccc(-c2nccnc2-c2ccccc2)cc1
16) COc1ccc(N(C(C)=O)c2nc(C)cc(C)c2C#N)c(OC)c1
17) COC(=O)c1ccccc1NC(=O)Cn1nc(C)c2nn(-c3ccc(Cl)cc3)c(C)c2c1=O
18) Cc1cc(NC(=O)CCCN2C(=O)c3cccnc3C2=O)no1

compound no.	13	14	15	16	17	18
VACV Venus inh	?	-11.9%	-16.3%	-16.4%	?	2.0%
Vaccinia mCherry	-28.7%	i	-6.0%	i	-29.2%	2.1%

19) CCc1ccc(NC(=O)CN(c2ccc(C)cc2)S(=O)(=O)c2cccs2)cc1
20) Cc1cc(C(=O)NCC2Cc3cccc(-c4cncnc4)c3O2)c(C)o1 (configuration not stated)
21) Cc1nn(C(C)C(=O)N2CCN(c3ccc(F)cc3)CC2)c(=O)c2c1sc1ccccc12 (configuration not stated)
22) N/C(=N\OC(=O)COc1ccccc1Cl)c1ccc(Cl)cc1
23) CC(Sc1nnc(COc2ccc(Cl)cc2)n1Cc1ccccc1)C(=O)O (configuration not stated)
24) Cc1c2cnn(CC(=O)NCc3ccc(F)cc3)c(=O)c2c(C)n1Cc1ccccc1Cl

compound no.	19	20	21	22	23	24
VACV Venus inh	3.3%	-6.0%	-16.1%	-5.1%	-7.9%	-13.6%
Vaccinia mCherry	-2.6%	-13.6%	-14.5%	/	i	-12.7%

25) O=C1COc2ccc(S(=O)(=O)N3CCN(c4ccccc4)CC3)cc2N1
26) O=C(NC(=S)NC1CCSC1=O)c1ccccc1 (configuration not stated)
27) CCCNC(=O)c1c(CSc2ccc(Cl)cc2)noc1C(=O)NCc1ccccc1
28) COc1ccc(CCNC(=O)CSC2=NS(=O)(=O)c3cc(F)ccc3N2)cc1OC
29) CCc1ccc2oc(C(=O)Nc3cc(Cl)ccc3OC)cc(=O)c2c1
30) COC(CNC(=O)c1ccc2c(c1)ncn2-c1cccc(C)c1)OC

compound no.	25	26	27	28	29	30
VACV Venus inh	-7.2%	-13.3%	?	2.0%	13.0%	-12.6%
Vaccinia mCherry	-13.0%	i	-15.4%	-14.2%	0.8%	-14.5%

# Sorted by length of the SMILES (largest number first): 5 of the compounds above.
11) O=C(C[C@@H]1C/C=C/CC[C@H](Cc2ccc(F)cc2)C(=O)OCCNC1=O)N[C@H](CO)Cc1ccccc1
7) CCOc1ccc(C(=O)NC(=S)Nc2ccccc2N2CCC(C)CC2)cc1[N+](=O)[O-]
30) COC(CNC(=O)c1ccc2c(c1)ncn2-c1cccc(C)c1)OC
18) Cc1cc(NC(=O)CCCN2C(=O)c3cccnc3C2=O)no1
15) c1ccc(-c2nccnc2-c2ccccc2)cc1

compound no.	11	7	30	18	15
VACV Venus inh	-28.6%	-8.9%	-12.6%	2.0%	-16.3%
Vaccinia mCherry	?	/	-14.5%	2.1%	-6.0%

# Later entries:
31) Cc1ccc2cccc(SCC(=O)NCC#N)c2n1
32) CCc1ccc(NC(=O)C(=O)N/N=C(\C)CC(=O)Nc2ccccn2)cc1
33) C#CCOCCOCCOCCNc1nc(N2CCN(C(=O)CCCCCCCCCCNC(=O)[C@H](CCCCN)n3cc(CCCC(=O)O)nn3)CC2)nc(N2CCN(C(=O)CCCCCCCCCCNC(=O)[C@H](CCCCN)n3cc(CCCC(=O)O)nn3)CC2)n1
34) CCCCn1c(N)c(N(Cc2ccccc2OC)C(=O)COc2cc(C)ccc2Cl)c(=O)[nH]c1=O
35) Cc1ccc2c(CC(=O)Nc3c(C)n(C)n(-c4ccccc4)c3=O)coc2c1
36) COc1cc(CNC(=O)c2ccc3c(c2)N(C)C(=O)C2CCCCN32)cc(OC)c1OC (configuration not stated)

compound no.	31	32	33	34	35	36
VACV Venus inh	-20.9%	-8.3%	-19.4%	-13.6%	-1.2%	-0.9%
Vaccinia mCherry	-23.2%	i	i	i	-12.4%	-0.4%

# Single values from the entries so far:
# Result for no. 32 in VACV Venus inh: -8.3%
# Result for no. 36 in VACV Venus inh: -0.9%
# Result for no. 34 in VACV Venus inh: -13.6%
# Result for no. 33 in VACV Venus inh: -19.4%
# Result for no. 31 in VACV Venus inh: -20.9%
# Result for no. 35 in Vaccinia mCherry: -12.4%

# New compounds follow:
37) CC(C)c1ccccc1-n1c(-c2cccnc2)n[nH]c1=S
38) O=C(NC(=S)Nn1cnc2c(cnn2-c2ccccc2)c1=O)c1ccc(Cl)cc1
39) COCCSc1nnc(NC(=O)c2ccc([N+](=O)[O-])cc2)s1
40) O=C(COc1ccc2ccc(=O)oc2c1)Nc1ccc(CCO)cc1
41) CCc1ccc(NC(=O)CCC(=O)Nc2nnc(C(F)(F)F)s2)cc1
42) Cc1nc(N2CCN(Cc3ccc4c(c3)OCO4)CC2)c2oc3ccccc3c2n1

compound no.	37	38	39	40	41	42
VACV Venus inh	5.8%	6.1%	-8.7%	-0.8%[7.34 µM]	2.4%	-24.7%
Vaccinia mCherry	i	-12.4%	-10.5%	-8.1%[7.34 µM]	-9.0%	i

43) C=CCn1c(SCC(=O)Nc2cc(C)on2)nc2sc(CC)cc2c1=O
44) COc1cccc2sc(N(Cc3cccnc3)C(=O)C3COc4ccccc4O3)nc12 (configuration not stated)
45) CN(CC(=O)Nc1ccccc1C(F)(F)F)C(=O)Cc1ccc(S(=O)(=O)N2CCOCC2)s1
46) O=C(NCc1ccncc1)C1CCN(S(=O)(=O)Cc2ccccc2)CC1
47) COc1ccc(CCC(=O)Nc2ccc(S(=O)(=O)Nc3nccc(C)n3)cc2)cc1
48) CCCN(CCC)CCCNC(=O)C1CCN(c2nc3ccc(CC)cc3s2)CC1

compound no.	43	44	45	46	47	48
VACV Venus inh	-2.9%	-7.1%	-1.3%	-3.7%	-2.9%	-9.6%[7.34 µM]
Vaccinia mCherry	/	-16.1%	-7.8%	i	-16.8%	-10.5%[7.34 µM]

49) C=C(Cl)COc1cc(C)cc2oc(=O)cc(CC)c12
50) Cc1ccc(CSc2nc3ccccc3c(=O)[nH]2)cc1
51) Cc1cccc(C)c1NC(=O)/C(C#N)=C/c1ccc(-c2ccc(C(=O)O)cc2)o1
52) CCCCCc1c(-c2ccc(F)cc2F)ncn1CCc1ccccc1OC
53) COc1ccc(C(=O)C2C(c3ccc(-c4ccccc4[N+](=O)[O-])o3)NC(=O)NC2(O)C(F)(F)F)cc1 (configuration not stated)
54) COc1ccccc1NC(=O)CSc1nnc(-c2ccco2)n1N

compound no.	49	50	51	52	53	54
VACV Venus inh	-27.6%	-16.3%	-4.8%	-20.4%	-13.0%	0.0%[7.34 µM]
Vaccinia mCherry	-1.7%	i	i	-23.3%	-16.0%	i[7.34 µM]

55) CC(=O)c1cccc(NC(=O)CC(c2ccc(C)cc2)N2Cc3ccccc3C2=O)c1 (configuration not stated)
56) CNC(=S)NNc1nncc2ccccc12
57) COc1cc(-c2c(CCO)sc3ccccc23)cc(OC)c1OC
58) Cc1cccc(C(=O)Nc2ccccc2OCc2cc(=O)n3ccccc3n2)c1
59) CCCCC(=O)Nc1nc2c(OC)ccc(OC)c2s1
60) CS(=O)(=O)NN1C(=O)c2ccccc2NC12CCCC2

compound no.	55	56	57	58	59	60
VACV Venus inh	5.8%	-2.6%	-21.1%	-12.8%	-15.1%	0.0%
Vaccinia mCherry	-1.0%	1.1%	-22.7%	-26.3%	i	-29.6%

61) O=C(CCCN1C(=O)/C(=C\c2cccs2)SC1=S)Nc1cc([N+](=O)[O-])ccc1O
62) CC(C)(C)CN1CCNC(=O)C1CC(=O)NCCc1cnn(-c2ccccc2)c1 (configuration not stated)
63) O=S1(=O)N[C@@H](c2ccccc2)COc2cc(Br)ccc21
64) Cc1noc(C)c1COC(=O)CNC(=O)c1cccc(F)c1
65) COc1ccc(-n2nc(C(=O)N3CCC(C)CC3)c3c4ccccc4n(C)c3c2=O)cc1Cl
66) Cc1c(Cl)cccc1NC(=O)CCn1c(=O)c2cccn2c2ccccc21

compound no.	61	62	63	64	65	66
VACV Venus inh	-10.5%	-5.1%	-18.5%	-3.5%	0.6%	-1.5%
Vaccinia mCherry	i	i	-0.2%	1.4%	-4.8%	1.3%

67) CCCc1n[nH]c2c1C(=O)C(C(=O)OC)C(C)(C)C2 (configuration not stated)
68) Cc1cc(NCc2ccccc2Cl)n2cnnc2n1
69) O=C(NCCc1c[nH]c2ccccc12)C(=O)NCC1OCCN1S(=O)(=O)c1ccc(F)cc1 (configuration not stated)
70) Cc1ccc(-c2cc(-c3ccccc3)nc(NN)n2)cc1
71) N#Cc1nccnc1S(=O)(=O)c1cccs1
72) COc1ccccc1-c1noc(-c2ccc(NCCc3ccccc3)c([N+](=O)[O-])c2)n1

compound no.	67	68	69	70	71	72
VACV Venus inh	-9.1%	?	-12.1%	?	-12.8%	-1.1%
Vaccinia mCherry	/	-4.0%	?	?	-10.0%	-3.8%

73) COC(=O)c1ccc(-n2c(C)cc(C(=O)COC(=O)CNS(=O)(=O)c3ccc(C)cc3)c2C)cc1
74) CC1=C(C(=O)N2CCOCC2)CC(CC(=O)NCCN2CCOCC2)C(=O)N1CCC1=CCCCC1 (configuration not stated)
75) COc1ccc(C(=O)Oc2coc(CSc3nnc(NC(=O)c4cccs4)s3)cc2=O)cc1
76) Cc1cccc(S(=O)(=O)N2CCN(c3nc(-c4cccs4)nc4ccccc34)CC2)c1
77) O=c1[nH]c2c(n(C3CCCCC3)c1=O)CCC2
78) COc1ccc2nc(Nc3nc4cc5c(cc4s3)OCCO5)sc2c1

compound no.	73	74	75	76	77	78
VACV Venus inh	-13.0%	-11.8%	-28.8%	-13.1%	-5.9%	-19.5%
Vaccinia mCherry	-13.7%	-14.2%	-7.3%	-7.1%	-10.5%	-6.9%

79) Cc1ccc(S(=O)(=O)N2CCOCC2)cc1NC(=O)COC(=O)CCc1c[nH]c2ccccc12
80) CSC1=NCCN1C(=O)c1ccc(S(=O)(=O)N2CCCCC2)cc1
81) CC(=O)Nc1ccc2c(COC(=O)[C@H](C)N3C(=O)C4CCCCC4C3=O)cc(=O)oc2c1 (some centres not stated)
82) COc1ccc(OC)c(-c2csc(N(Cc3ccco3)C(=O)c3ccco3)n2)c1
83) Cc1ccc(CCNC(=O)c2ccc3c(c2)N(Cc2cccc(C)c2)C(=O)c2ccccc2S3(=O)=O)cc1
84) CC(C)(C)SCCNS(=O)(=O)c1ccc2ccccc2c1

compound no.	79	80	81	82	83	84
VACV Venus inh	-4.6%	-6.9%	-15.9%	-13.9%	-16.6%	-12.0%
Vaccinia mCherry	-12.7%	8.2%	-24.0%	-21.2%	-6.3%	-4.5%

85) COC(=O)[C@@H]1C[C@@H](C(=O)O)[C@H](C)C1(C)C
86) CC(C)n1c(-c2cccs2)nc2ccccc21
87) COC(=O)c1[nH]c2cc(OC)ccc2c1NC(=O)CCN1CCCCC1
88) COC(=O)c1sc2ncn(N)c(=O)c2c1C

compound no.	85	86	87	88
VACV Venus inh	-4.9%	-7.2%	-13.7%	-2.1%
Vaccinia mCherry	i	/	/	-13.8%
